# NPYLR7 agonist: activates Aedes aegypti NPYLR7 receptor | hit rate 0.15% among 270,000 | HEK293T NPYLR7/Galpha15, GCaMP6s calcium fluorescence | activation, % at 10 µM; in the data active = activation above about 40%;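 note: 0% = vehicle and 100% = reference agonist at the receptor; some compounds past the cut are filed as inactive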
# NPYLR7 agonist max-min: second read-out of NPYLR7 agonist, no call of its own (marks repeat the call); activation, %; measured here: Max-Min RFU normalised activation; some inactives read as strong as hits;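 span of the calcium signal over five minutes; 0% = vehicle and 100% = native peptide agonist; compound fluorescence can raise it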
# * marks the source's active call; other numbers are inactive results; & = joins results of further samples. An excerpt; count on the stated rates, not on these rows.
SMILES,NPYLR7 agonist,NPYLR7 agonist max-min
O=C(Cn1nc(-c2ccccc2)oc1=O)OCC(=O)N1CCc2ccccc21,5,2
CCN(CC(C)(C)O)c1ccc(S(C)(=O)=O)cc1S(C)(=O)=O,8,3
Cc1ccc2[nH]cc(C3CCN(S(=O)(=O)c4cc(C)c(Cl)cc4C)CC3)c2c1,33,34
O=C(c1csc(-c2cccs2)n1)N1CCCC(CO)(Cc2cccc(Cl)c2)C1 (stereo not drawn),1,2
CC1=NC2=C(C(=O)CCC2)C(c2ccc(Cl)cc2Cl)C1C#N (stereo not drawn),15,6
COc1cc(C(C)=O)ccc1OC(C)c1nc(C(C)C)no1 (stereo not drawn),6,4
O=[N+]([O-])c1cc(-n2cccc2)ccc1N1CCCCCC1,-4,-1
CC(C)Cn1nccc1NC(=O)Cc1coc2cc3c(cc12)CCC3,7&0,1&-2
CC(C)c1cc(Oc2cccc(Cl)c2)nc(SCc2ccc(C(F)(F)F)cc2)n1,27,16
O=C(C(Cl)=CNc1ccc(Cl)cn1)C(F)(F)F,2,0
C=CCC(O)(CC=C)c1ccc(CN(CCOC)Cc2ccccc2OC)o1,-4,2
O=C(C1=COCCO1)N1CCN(c2nc3ccc(F)cc3s2)CC1,-1,-3
C=CCn1c(SCC(=O)Nc2ccc(O)cc2)nc2sc(C)cc2c1=O,5,2
Cc1cc(C)c(NC(=O)CN2CCN(C(=O)CN3CCOCC3)CC2)c(C)c1,-2,-2
Cc1cccc(Oc2cc(N3CCCCCC3)ncn2)c1,-10,2
CN(C)c1nc(N)nc(/C(C#N)=C/c2ccccc2OC(F)(F)F)n1,13,6
Cc1c(C)n2c3c(=O)n(Cc4ccccc4Cl)c(=O)n(C)c3nc2n1Cc1ccco1,19,20
Cc1ccc(Cc2nsc(N(CCC(=O)N3CCC(C(N)=O)CC3)Cc3ccco3)n2)cc1,-7,-12
CC(C)(C)c1cc(C(F)(F)F)c(C#N)c(SCC(=O)N2CCCC2C(=O)O)n1 (stereo not drawn),7,9
Cc1ccc(-n2ncc3c(=O)n(NC(=O)C(c4ccccc4)c4ccccc4)cnc32)cc1,4,2
Cc1cc(C(=O)OCC(=O)c2ccc(Br)cc2)ccc1[N+](=O)[O-],1,6
Cc1cc(C)c(S(=O)(=O)N2CCN(c3nc(-c4ccc(Cl)cc4)nc(C)c3C)CC2)c(C)c1,7,14
N#Cc1c(N)nc2c(c1C(=O)OCCO)CCC2,-2,-6
CN(CCc1cn[nH]c1)C(=O)c1cccc(C2CCNC2)c1 (stereo not drawn),-5,-6
COCC(=O)N(C)C(Cc1ccc(F)cc1)C1CCN(C(=O)c2ccc(-c3ccccc3)cc2)CC1 (stereo not drawn),17,7
Cc1ccc(C)c(Cn2c(=O)c3c(nc4n3CC(C)CN4CCc3ccccc3)n(C)c2=O)c1 (stereo not drawn),-4,-8
Cc1nnc(Nc2ccc(N3CCOCC3)cc2)c(C#N)c1C,7,2
CCOc1cc(CNc2cccc(C(=O)O)c2C)ccc1OCCO,12,9
Cc1cc(C)c(CNC(=O)Cn2cnc3scc(-c4ccc(F)cc4)c3c2=O)c(=O)[nH]1,5,1
CCN(C(=O)Cn1c(=O)oc2ccccc21)c1c(N)n(Cc2ccccc2)c(=O)[nH]c1=O,-6,-6

# Structures listed so far that have a Cl atom:
SMILES,NPYLR7 agonist,NPYLR7 agonist max-min
Cc1ccc2[nH]cc(C3CCN(S(=O)(=O)c4cc(C)c(Cl)cc4C)CC3)c2c1,33,34
O=C(c1csc(-c2cccs2)n1)N1CCCC(CO)(Cc2cccc(Cl)c2)C1 (stereo not drawn),1,2
CC1=NC2=C(C(=O)CCC2)C(c2ccc(Cl)cc2Cl)C1C#N (stereo not drawn),15,6
CC(C)c1cc(Oc2cccc(Cl)c2)nc(SCc2ccc(C(F)(F)F)cc2)n1,27,16
O=C(C(Cl)=CNc1ccc(Cl)cn1)C(F)(F)F,2,0
Cc1c(C)n2c3c(=O)n(Cc4ccccc4Cl)c(=O)n(C)c3nc2n1Cc1ccco1,19,20
Cc1cc(C)c(S(=O)(=O)N2CCN(c3nc(-c4ccc(Cl)cc4)nc(C)c3C)CC2)c(C)c1,7,14

# In another format: entries from further up
SMILES	NPYLR7 agonist	NPYLR7 agonist max-min
Cc1cc(C)c(S(=O)(=O)N2CCN(c3nc(-c4ccc(Cl)cc4)nc(C)c3C)CC2)c(C)c1	7	14
N#Cc1c(N)nc2c(c1C(=O)OCCO)CCC2	-2	-6

# (further entries)
SMILES,NPYLR7 agonist,NPYLR7 agonist max-min
O=C(OCC(=O)N1CCCCC1)c1ccc(O)cc1O,4,2
N#CCCn1c(=O)n(CCC#N)c(=O)n(CCC#N)c1=O,6,4
Cc1noc(CC(Cc2onc(C)c2[N+](=O)[O-])c2ccc(Cl)cc2Cl)c1[N+](=O)[O-],0,4
CCCc1nnc2sc(CCc3ccccc3)nn12,1,-3
O=[N+]([O-])c1ccc(-c2cn3c(n2)CCc2ccc4cccnc4c2-3)cc1,4,35
COC(=O)c1ccc(N2CCN(c3nnc(C)s3)C(C)C2)cc1 (stereo not drawn),3,2
CC1=C(C(=O)OCC(C)C)C(c2ccc(O)c([N+](=O)[O-])c2)NC(=O)N1 (stereo not drawn),-4,-4
COc1ccc(OC2CCN(Cc3nc(-c4ccccn4)no3)CC2)cc1,17,6
COc1cc(-c2nc(Cn3nc(C)nc3C)c(C)o2)cc2c1OCO2,15,7
CCCC(C)C(=O)N1CCc2cc(OC)c(OC)cc2C1c1cccc(Cl)c1 (stereo not drawn),8,4
CCc1n[nH]c(=S)n1NC(=O)c1cncc(Br)c1,6,2
CC(C)n1nccc1NC(=O)Cc1cccc(Br)c1,5,6
CCc1cccc(NC(=O)NCCNc2cc(-n3ccnc3C)nc(C)n2)c1,-11,-21
O=S1(=O)CCCCN1c1cccnc1,11,23
Cc1[nH]n(-c2ccccc2)c(=O)c1N=Nc1ccc(SC(F)(F)F)cc1,3,-4
Cc1cc(O)c(C(c2ccccc2Cl)c2c(O)cc(C)[nH]c2=O)c(=O)[nH]1,1,5
CC1CCN(C2=C(c3c(-c4ccccc4)[nH]n(C)c3=O)C(=O)N(Cc3ccc(F)cc3)C2=O)CC1,5,10
Cn1c(=NN=C2CCCCC2=O)sc2ccccc21,7,4
CCOC(=O)N1CCN(C(=O)CSc2ccc(-c3ccc(CC)cc3)nn2)CC1,-4,-4
Cn1cnnc1-c1ccc(NS(=O)(=O)c2ccccc2F)cc1,2,0
CCC(C(=O)N(Cc1ccccn1)C1CC1)n1cc(C(C)=O)c2ccccc21 (stereo not drawn),4,1
CCN1CCN(C(=O)CCN(CCOC)c2nc(-c3cccc(Br)c3)nc3ccccc23)CC1,3,10
CC(Oc1ccc2c(c1)OCO2)C(=O)Nc1cc(Cl)cc(Cl)c1 (stereo not drawn),-24,-25
Cc1ccc(S(=O)(=O)N(C)C)cc1NC(=O)c1cccc2ncccc12,2,2
O=C1CCN(C(=O)c2ccc(Oc3ccccc3Br)nc2)CCN1,7,6
CCCN1CCC(NC(=O)CC(c2ccccc2)c2ccccc2C)CC1 (stereo not drawn),14,5
COC(=O)[C@@H]1C[C@@H](O)CN1C(=O)CCNC(=O)c1ccc(F)cc1,2,3
COCCn1c(=O)n(CC(=O)N2CCCCCC2)c2cc(C(=O)O)ccc21,10,-4
CCCCCN(CC(=O)Nc1cc(C(C)(C)C)nn1-c1ccc(Cl)c(Cl)c1)C(=O)COc1ccc(Cl)cc1,-1,6
CCc1cn[nH]c1C1CCN(C(=O)c2cn3cccc(C)c3n2)CC1,15,0
COc1ccc(C(C)=O)cc1CN1C(=O)C(C)ON=C1c1ncccc1C (stereo not drawn),7,3
CC(NC(=O)OCc1ccccc1)C(=O)N1CCOC(COc2cccc(C(F)(F)F)c2)C1 (stereo not drawn),4,13
O=C(NC1CCN(Cc2ccccc2)CC1)c1cncn1-c1cccc(-c2cccc3c2sc2ccccc23)c1,-1,-7
CCOc1cc(/C=C2/SC(N)=NC2=O)cc([N+](=O)[O-])c1O,7,0
COc1cc(NCCn2nnc3ccccc32)ncn1,12,11
CC1CCc2c(sc3nc(-c4ccc(N(C)C)cc4)nc(Cl)c23)C1 (stereo not drawn),-10,-5
CC1(C)NC(=O)N=C1NC(=O)c1ccnc(Cl)c1,0,32
CC(C)(C)n1nc2c(c1NC(=O)c1ccccc1)CSC2,-1,-2
CC1SC(c2ccsc2)N(CCN2CCN(C(=O)c3ccccc3Cl)CC2)C1=O (stereo not drawn),-18,-15
O=C(Nc1cccc(Cl)c1)N1CCCC(OCc2cccnc2)C1 (stereo not drawn),-1,-1

# Part of the list above, bar-delimited:
mol | NPYLR7 agonist | NPYLR7 agonist max-min
COc1cc(NCCn2nnc3ccccc32)ncn1 | 12 | 11
CC1CCc2c(sc3nc(-c4ccc(N(C)C)cc4)nc(Cl)c23)C1 (stereo not drawn) | -10 | -5
CC1(C)NC(=O)N=C1NC(=O)c1ccnc(Cl)c1 | 0 | 32
CC(C)(C)n1nc2c(c1NC(=O)c1ccccc1)CSC2 | -1 | -2
CC1SC(c2ccsc2)N(CCN2CCN(C(=O)c3ccccc3Cl)CC2)C1=O (stereo not drawn) | -18 | -15

# New compounds follow.
SMILES,NPYLR7 agonist,NPYLR7 agonist max-min
CCC(C(=O)OC)N1CCC(c2ccccc2)C1 (stereo not drawn),-4,-6
C=CCSc1nc2c(c(=O)[nH]c(=O)n2C)n1Cc1ccccc1,9,5
Cc1ccc(NC(=O)C2CCCCC2)cc1N1CCCCC1=O,10,3
COc1ccc(OC)c2c(C)cc(N3CC(c4cccnc4)C3)nc12,13,10
COc1ccc(-c2cc(NC(=O)c3cccc(Cl)c3)n(-c3ccc(C)cc3)n2)cc1,5,3
CCN(CC)C(=O)Oc1ccc2c(ccn2Cc2c(F)cc(F)cc2F)c1-c1cc(C)cc(C)c1,10,5
CC(C)c1ccc(-c2cc(N3CCN(C)CC3)nc(N)n2)cc1,1,-2
CC(=O)Nc1cccc(/C(C)=N\Nc2ccc(S(=O)(=O)N3CCCC3)cc2[N+](=O)[O-])c1,-6,-8
COc1ccc(-c2cnc(-c3ccc(CNC(=O)COCc4ccccc4)cc3)[nH]2)cc1,8,20
CC/C=C(/C)C(=O)NCC(C)(C)N1CCS(=O)CC1,8,6
Cc1ccc(C)c(S(=O)(=O)c2cnc(SCC(=O)Nc3cccc(Cl)c3)[nH]c2=O)c1,25,16
CN(C)CCCOc1ccc(-c2nnc3ccc(-c4ccc(CO)cc4)cn23)cc1,7,-3
COc1cc(C(=O)N2CC3C[C@@H]4CC2C[C@H](C3)C4)nc(OC)n1,2,-1
O=C(Cn1cnc([N+](=O)[O-])n1)NCCc1ccccc1,-8,-10
O=C(OCc1nc2ccsc2c(=O)[nH]1)C12CC3CC(CC(Cl)(C3)C1)C2,9,7
O=C(c1cccs1)N(CC(=O)N1CCc2sccc2C1COc1ccc(Cl)cc1)CC1CCCO1 (stereo not drawn),-1,5
Cc1ccc(NC(=O)c2c(N)n(/N=C\c3ccco3)c3nc4ccccc4nc23)cc1,-11,-12
CCN(CC1CCOC1)C(=O)c1cnn(-c2ccc(Cl)cc2Cl)c1 (stereo not drawn),-3,-3
COc1ccc(C2CC(c3ccccc3OC)=NN2C(=O)CN2CCCC2)cc1 (stereo not drawn),-1,3
CC(=O)OC(C)(C)C(=O)N1CCc2ccccc2C1c1ccc(C)cc1 (stereo not drawn),13,5
N#Cc1cccc(Cl)c1NCC1CSCCS1 (stereo not drawn),-5,-5
O=C(NCC(F)(F)F)NC1CCCN1S(=O)(=O)c1ccccc1F (stereo not drawn),5,2
CN(Cc1ccc2c(c1)OCCO2)Cn1ncn(C)c1=S,-1,-2
O=C(c1ccc(CSc2cccc(Cl)c2)cc1)N1C2CCC1CC(Oc1ccc3c(c1)OCO3)C2 (stereo not drawn),6,-2
CCNC(=O)C1CCN(Cc2nc(-c3ccc(C(=O)OC)cc3)no2)C1 (stereo not drawn),4,2
Cn1cc(CC(=O)NCC2CCC(c3nc4ccccc4[nH]3)CC2)c2ccccc21 (stereo not drawn),-4,-7
Oc1[nH]c2ccccc2c1N=Nc1cccc2cccnc12,19,15
Cc1ncc2c(c1CNC(=O)c1ccccc1F)CCN(C(=O)c1c(F)cccc1Cl)C2,9,8
c1ccc2c(c1)nc(Nc1ccncc1)c1nncn12,6,6
Cc1cccc(C(=O)N2C(C(=O)NCC(C)C)COC23CCN(C(=O)c2ccccc2C)CC3)c1 (stereo not drawn),2,11
CCOc1ccc2nc(N=C(NC(=O)CC)NC(=O)CC)nc(C)c2c1,-9,-15
CC(C)c1noc(C2CCCN2C(=O)c2cccc(Cn3cccn3)c2)n1 (stereo not drawn),-6,4
N#Cc1ccccc1CN1CCC(OC(=O)CCc2ccco2)CC1,0,-1
COC(=O)C1=C(C)OC(=N)C(C#N)C1c1cccc(OCc2ccccc2)c1 (stereo not drawn),-6,-9
CCCn1c(NCCO)nc2c1c(=O)n(C)c(=O)n2C,0,0
O=C(N/N=C1\CCCCC1C1CCCCC1)C1COc2ccccc2O1 (stereo not drawn),-2,-3
NC(=O)c1ccc(N(C(N)=O)c2c(F)cccc2F)nc1-c1ccc(F)cc1F,3,-4
CCCc1cc(NC(=O)c2cn(C)nc2-c2ccccc2OC)n[nH]1,-1,26
CCN(Cc1ccc(N(C)C)cc1)C(=O)c1cccc(C(=O)OC)n1,-5,1
Cc1cc(F)ccc1NC(=O)CNC(C)Cn1cncn1 (stereo not drawn),17,10

# Screens deposited in PubChem BioAssay by Fisher Drug Discovery Resource Center.
